MLL AF4-AF9 inh = inhibitors of AF4 peptide binding to AF9, primary screen, biochemical, AlphaScreen, biotin-AF4 peptide, FLAG-AF9, single point; Protein AF-9 (Homo sapiens), P42568; inhibition, % at 10 µM; 0.47% of 350,000 active; AID 651704, 2012;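 active = every replicate reaching a set inhibition limit, whatever the replicate mean, cut at about 25% in these data; inconclusive = mean inhibition reaches that limit but some replicates miss it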;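 also: 0% = plate neutral control median and 100% = total signal loss; the record names both 10 and 1 µM as test concentration; the first replicate is given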
Target sequence (P42568 whole entry, looked up): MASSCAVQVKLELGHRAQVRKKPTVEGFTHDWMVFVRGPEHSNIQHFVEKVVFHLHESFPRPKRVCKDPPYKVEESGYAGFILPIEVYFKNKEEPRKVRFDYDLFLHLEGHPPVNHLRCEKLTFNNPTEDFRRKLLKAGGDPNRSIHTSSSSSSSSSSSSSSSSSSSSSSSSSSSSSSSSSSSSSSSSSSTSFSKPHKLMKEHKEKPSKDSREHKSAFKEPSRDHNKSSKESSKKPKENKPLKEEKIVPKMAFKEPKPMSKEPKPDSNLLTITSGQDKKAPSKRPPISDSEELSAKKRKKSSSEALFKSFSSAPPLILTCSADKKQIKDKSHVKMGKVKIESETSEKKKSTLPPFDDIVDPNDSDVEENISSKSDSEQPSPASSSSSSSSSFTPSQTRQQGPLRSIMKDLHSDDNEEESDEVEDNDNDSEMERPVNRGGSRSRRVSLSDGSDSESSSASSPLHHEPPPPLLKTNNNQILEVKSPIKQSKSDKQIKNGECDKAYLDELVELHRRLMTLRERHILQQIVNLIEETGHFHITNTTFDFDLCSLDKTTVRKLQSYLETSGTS
LANA-H2A inh = blockers of LANA interaction with H2A/H2B – biochemical, FP readout, HTS, primary screen | Protein LANA1 (Human herpesvirus 8 type P (isolate GK18)), Q9QR71 | cell-free LANA-H2A/H2B peptide, fluorescence polarization | inhibition, % (concentration not given with the values) | 0.6% of 320,000 active; in the data active = inhibition mostly above about 10%, no sharp cut-off; inactive = mostly below about 6.7%;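 also: stock transfer was 7.5 nL into about 10 µL; 0% = median of vehicle wells and 100% = median of positive control wells; one replicate is shown; the record names a cut of 25% in any replicate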
T cruzi inh = inhibitors of intracellular T. cruzi growth, primary screen, luminescence, NIH3T3 host cells | T. cruzi beta-gal in NIH3T3, 90 h | inhibition, % (test concentration not listed) | 1.4% of 300,000 active | AID 1885, 2009;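 active = mean inhibition across valid replicates above about 55%, limit read from the data; inconclusive = mean below that limit but half or more replicates reach it; inactive = mean below it, under half of replicates reach it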;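 also: signal also drops with host cell toxicity which is not excluded here; 0% = plate median of DMSO wells and 100% = zero luminescence signal; higher percent means less beta-gal luminescence so fewer parasites; stock transfer was 50 nL into about 50 µL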
Bfl-1 A1 inh = caspase 3/7 activation in MEF A1-2A-BIM cells, primary screen, A1 inhibitor project, cell-based, luminescence, HTS; Caspase-Glo 3/7 luminescence, 3 h; percent of clofoctol response, vehicle zero; caspase activation, % (no concentration beside the values); 0.066% of 330,000 active; AID 2462, 2010;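 active = over half of replicate activation scores above 10%, or exactly half above 10 with the replicate mean above 10; inconclusive = replicate mean below 10 yet half the replicates above 10; inactive = over half of replicates below 10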;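 also: wells of about 30 µL received 50 nL stock; many hits fall short of the cut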
RanGTP-Imp inh = inhibitors of RanGTP-importin-beta interaction, primary screen, biochemical, FRET, CFP-Ran, YFP-importin-beta, homogeneous | 1.1% of 300,000 active | Ran GTPase (GTP-bound) - importin-beta complex | inhibition, % (no concentration beside the values) | cell-free CFP-Ran/YFP-importin-beta FRET ratio;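 active = most replicates above 15%; inconclusive = exactly half above 15%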;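 also: 0% = DMSO wells and 100% = Ran loaded with GDP instead of GTP; wells of about 40 µL received 100 nL stock; the first replicate is given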
Calb FLC = C. albicans growth inhibition with fluconazole, primary screen, CaCi-2 strain, Alamar Blue fluorescence. growth inhibition, % (no concentration beside the values). 0.57% of 300,000 active. C. albicans CaCi-2 (fluconazole-resistant clinical isolate) + fluconazole, 48 h;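 active = most replicates above 75%; inconclusive = exactly half above 75%; inactive = most below 75%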;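 also: all wells also contain fluconazole at 8 µg/ml as a sub-toxic cotreatment; 0% = median of DMSO wells and 100% = median of geldanamycin control wells; wells of about 8 µL received 7.5 nL stock; the first replicate is given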
Beta cell apopt = inhibitors of cytokine-induced beta cell apoptosis, primary screen, luminescence; INS-1E cytokine-induced death, ATP luminescence, 48 h; percent of positive-control rescue, neutral wells zero; protection from apoptosis, % (concentration not given with the values); 0.8% of 300,000 active;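 active = all replicates at 75% or more, or half of them and the mean; inconclusive = half reach 75% but not the mean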;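 also: 0% = cytokine-treated negative control wells and 100% = positive control rescue; higher means more ATP so stronger rescue from cytokine killing; wells of about 40 µL received 100 nL stock; the first replicate is given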
Vif TR-FRET = inhibitors of Vif binding to APOBEC3G peptide, primary screen, biochemical, TR-FRET, GST-Vif 1-94, biotin-A3G peptide, dose response retest (AID 1117319). Virion infectivity factor (Human immunodeficiency virus type 1 group M subtype B (isolate …. inhibition, %; hits with a dose series show IC50 in µM. TR-FRET GST-Vif / biotin-A3G peptide binding; higher % means a stronger effect; test concentration not given here; strong numbers were not always called active. 0.57% of 260,000 active;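 active = above the screen mean plus three standard deviations and confirmed in dose response; inconclusive = results disagree or hit not tested in dose response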;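 also: Vif residues 1-94 fused to GST binding biotinylated APOBEC3G peptide 110-148; 0% = full assay without inhibitor and 100% = GST in place of GST-Vif; retest series ran down from 100 µM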
* marks the source's active call; other numbers are inactive results; ? = inconclusive; · = no result given.

SMILES | MLL AF4-AF9 inh | LANA-H2A inh | T cruzi inh | Bfl-1 A1 inh | RanGTP-Imp inh | Calb FLC | Beta cell apopt | Vif TR-FRET
O=c1[nH]ncc(N2CCCCCC2)c1Cl | -0.5 | -1.1 | -21 | -0.1 | -4.7 | 13 | -6 | -6%
COc1ccc(CCN2C(=O)C3C4C=CC(C5CC45)C3C2=O)cc1OC (stereo not given) | -0.9 | 0.1 | -7 | 0.4 | 2.8 | -13 | 1 | -4%
Cc1ccc(NC(=O)c2ccc(CNS(=O)(=O)c3cccc(C(F)(F)F)c3)cc2)cc1 | · | · | 0 | -0.1 | 1.6 | -9 | -12 | 5%
Cc1cccc(C)c1NC(=O)CN(C)C(=O)c1ccc2nc[nH]c2c1 | -16 | 0.7 | -3 | -0.4 | -1.3 | 5 | -1 | 10%
COc1cc(Br)cc2cc(C(=O)N3CCN(c4ccccn4)CC3)c(=O)oc12 | · | 3.1 | -26 | -0.1 | -2.2 | 9 | -1 | -4%
COc1ccccc1/C=C/C(=O)Nc1cccc(C(C)=O)c1 | 2.9 | -2.4 | 19 | 0.1 | 1.0 | 2 | 4 | -9%
CCOc1ccc(CCNC(=O)COC(=O)c2ccc(Cl)nc2)cc1OCC | -1.6 | -2.2 | -1 | -1.9 | -3.9 | -2 | 5 | -3%
CCN(C(=O)Cc1c(C(=O)O)n(CC)c2ccccc12)c1ccccc1C | 2.5 | 4.8 | 1 | 0.6 | 4.9 | 1 | -6 | ·
O=[N+]([O-])c1cccc(C(=NCc2ccccc2)NO)c1 | 7.9 | 8.7 | -10 | 1.0 | -4.9 | 9 | 7 | ·
CC(=O)c1cc(C(=O)N2CCCC(C(=O)c3ccc(Cl)cc3)C2)cs1 (stereo not given) | 0.3 | -11 | 5 | 0.3 | 6.7 | -2 | 1 | -15%
CCOc1ccc(/C=C(\C(=O)O)c2ccc(S(=O)(=O)N3CCOCC3)s2)cc1OC | · | 3.7 | 2 | 1.6 | 104* | -8 | -3 | 28%
COc1ccc(CC(=O)Nc2cc(=O)n(C)c(=O)n2C)cc1 | 2.4 | -5.6 | -8 | -0.6 | -0.6 | -3 | 3 | 2%
CC(C)CC(=O)NC(NC(=S)Nc1ccccc1)C(Cl)(Cl)Cl (stereo not given) | -3.4 | 0.9 | -15 | 0.2 | -0.1 | -11 | 1 | 27%
CCOc1ccc(/C=C(/NC(=O)c2ccccc2Cl)C(=O)O)cc1 | -1.8 | -8.9 | -11 | 1.3 | -1.9 | -3 | -3 | 3%
C=CCn1c(SCC(=O)NCc2cccs2)nnc1C1CCCCC1 | · | 1.1 | 3 | -0.3 | ? | -1 | -1 | 6%
O=C(CSc1ncn[nH]1)Nc1ccnc2ccccc12 | 3.9 | -2.4 | -16 | 0.5 | 4.0 | -8 | -4 | 4%
CCCCOc1ccc(S(=O)(=O)N2CCN(C)CC2)cc1 | 0.9 | -0.6 | -34 | 0.5 | -0.9 | -9 | · | ·
COC(=O)CSc1ccc2c(N)c(C(=O)OC)sc2c1 | · | -0.2 | -10 | -2.5 | 2.5 | -5 | -6 | 0%
CC1Sc2ccc(S(=O)(=O)CCC(=O)Nc3cc(F)ccc3F)cc2NC1=O (stereo not given) | -4.8 | 2.9 | 3 | 0.0 | -2.9 | -6 | 1 | -4%
CC(=O)c1cccc(NC(=O)c2ccc(S(=O)(=O)N3CCCC3)cc2)c1 | -1.0 | -9.5 | 0 | 0.4 | 0.9 | -3 | 2 | ·
CCC(C)NC(=O)COc1ccc(Br)c(C)c1 (stereo not given) | · | 0.3 | 12 | 0.4 | 5.1 | 1 | -3 | 0%
COCCCn1c(=O)c2sccc2n(Cc2cccc(F)c2)c1=O | 2.4 | 1.3 | 3 | 0.1 | 6.4 | -1 | · | 11%
NC(C(=O)O)C(c1ccccc1)C(F)F (stereo not given) | · | -0.2 | -6 | 2.1 | 4.8 | -7 | -5 | 6%
COc1ccc(OC)c(/C=N/NC(=O)CC2C(=O)NN=C2C)c1 (stereo not given) | · | 7.2 | -7 | 0.1 | -1.2 | 6 | -4 | 26%
COc1ccc(C(O)(c2ccccc2OC)C(CN2CCOCC2)c2ccccc2)cc1 (stereo not given) | 5.7 | -1.8 | 1 | 0.1 | · | -20 | 8 | 8%
CCOC(=O)N1CCN(C(=O)C2CCC(CNS(=O)(=O)c3ccccc3)CC2)CC1 (stereo not given) | · | 1.7 | -4 | 0.8 | -2.6 | 4 | 4 | 2%
O=C(Nc1nncs1)c1cccc(S(=O)(=O)N2CCCC2)c1 | · | 2.1 | -1 | 2.9 | -2.9 | 5 | -2 | 4%
Cc1cc(C)c(S(=O)(=O)N(CC(=O)N2CCOCC2)C2CCCCC2)c(C)c1 | · | -2.0 | -5 | 0.3 | 0.8 | 5 | -1 | -3%
Cc1ccc(-n2c(SCC(=O)Nc3cc(C)on3)nc3c([nH]c4ccccc43)c2=O)cc1 | -7.5 | 1.9 | 15 | -0.1 | -3.1 | 8 | 2 | 1%
Cc1c(NC(=O)C(C)Oc2ccccc2F)c(=O)n(-c2ccccc2)n1C (stereo not given) | 1.6 | -4.5 | 8 | -0.2 | 0.6 | 5 | -1 | 1%
O=C(Nc1ccccc1)c1ccc(NCCc2ccccc2)c([N+](=O)[O-])c1 | -7.9 | -5.1 | -6 | 0.5 | -0.6 | -18 | -1 | ·
CC(=O)C1=C(c2ccccc2)NC(=O)NC1c1ccccc1OCC#N (stereo not given) | 7.0 | -3.3 | -1 | 1.0 | -4.6 | -5 | · | -1%
COc1cc(S(=O)(=O)N2CCCCCC2)ccc1Cl | · | 4.4 | -9 | 0.7 | 4.2 | -3 | -11 | -6%
COCCn1nnnc1SCC(=O)Nc1ccc2c(c1)OCO2 | -1.4 | -1.2 | -31 | 0.6 | -1.2 | -9 | -2 | 0%
Cc1nc(C(F)(F)F)c(C(=O)N/N=C(\N)c2ccccn2)s1 | -0.9 | -0.2 | -15 | 0.0 | ? | 1 | 77* | 7%
COc1ccc(-n2c(O)c(/C=N/NS(=O)(=O)c3cc(C)ccc3C)c3ccccc3c2=O)cc1OC | · | -10 | 12 | -0.2 | -2.2 | -3 | 0 | 24%
Cn1c(=O)[nH]c(=O)c2c1nc(NCCN)n2CCOc1ccccc1 | 2.7 | -1.3 | 7 | 0.5 | 2.2 | -9 | 1 | ·
CCC(=O)Nc1ccc(NC(=O)CSc2nc3cc4c(cc3cc2C)CCC4)cc1 | · | 0.2 | 49 | 0.3 | -3.3 | 2 | 30 | -8%
CC(C)c1ccc(Nc2nnc(SC3CCOC3=O)s2)cc1 (stereo not given) | 2.9 | -4.9 | 2 | -0.2 | 0.5 | -2 | -9 | -2%
O=C(COC(=O)CCc1nc2ccccc2c(=O)[nH]1)Nc1ccc(Cl)cn1 | -3.5 | 0.1 | -14 | 0.4 | -1.0 | -4 | -2 | ·
Cc1ccc(OCC(=O)OCC(=O)c2cccc([N+](=O)[O-])c2)cc1C | -2.4 | -11 | -3 | 0.3 | 2.1 | -4 | -2 | ·
Cc1ccc(NC(=O)/C(=C\c2cccc(Br)c2)NC(=O)c2ccco2)cc1 | · | -0.2 | 16 | 0.0 | ? | -16 | 0 | 2%
O=C(NCC(c1ccco1)N1CCc2ccccc2C1)c1cccc([N+](=O)[O-])c1 (stereo not given) | 0.5 | -2.2 | 7 | 0.3 | -1.7 | 3 | -2 | 5%
Cc1ccccc1N1CCN(C2CCCN(C(=O)c3ocnc3C)C2)CC1 (stereo not given) | -4.8 | -6.5 | -2 | 0.9 | -3.8 | -5 | -6 | ·
Cc1cccc(NC(=O)Cn2cnc3c(oc4nc5c(cc43)COC(C)(C)C5)c2=O)c1 | -0.3 | -3.9 | -6 | 1.1 | -0.9 | 20 | 0 | ·
CCOC(=O)c1cc2c(ccn2C)n1CC(=O)N(C)C | 0.5 | -1.4 | -9 | -0.1 | 0.5 | -2 | 2 | ·
O=C(COC(=O)c1ccc([N+](=O)[O-])o1)NC1CCCCC1 | -1.4 | 5.8 | · | 0.2 | · | · | 2 | ·
COc1ccc(C(=O)NCCSC2CCCCC2)cc1 | · | -2.3 | -12 | -0.1 | 1.9 | -25 | -12 | -5%
OCCNCc1cc(Br)ccc1OCc1ccc(Cl)cc1Cl | · | · | 16 | · | -4.2 | 4 | · | -3%
O=C(CCN1C(=O)C2C3C=CC(C3)C2C1=O)N1CCN(c2cccc(Cl)c2)CC1 (stereo not given) | · | -1.3 | 21 | 0.5 | ? | -5 | -2 | 2%
NC(=O)NNc1cccc(Cl)n1 | -0.3 | -0.1 | 1 | -0.3 | 2.2 | -9 | -9 | ·
CCCCCCn1c(COc2ccccc2F)nnc1SCC(=O)c1c(N)n(C)c(=O)n(C)c1=O | -1.6 | 1.1 | 14 | -1.2 | -2.1 | 0 | -2 | -12%
O=C(CNC(=S)N(Cc1ccc(F)cc1)C1CCCCC1)NCCN1CCOCC1 | 2.0 | -0.2 | 6 | 0.3 | 6.9 | 1 | -2 | -6%
COc1ccccc1NC(=O)Nc1ccccc1N1CCOCC1 | 0.8 | 2.2 | -4 | 0.0 | 4.8 | 1 | -2 | -1%
COc1cc([N+](=O)[O-])cc(/C=N/NC(=O)c2cccnc2)c1O | 6.1 | -1.1 | -14 | -3.1 | 2.9 | 9 | -8 | ?
Cc1noc(NS(=O)(=O)c2ccc(NC(=O)C(Cl)(Cl)Cl)cc2)c1C | -6.0 | 0.6 | -18 | -2.3 | 3.7 | 2 | -8 | ·
CC(C(=O)N(C)C1CCCCC1)N1CCC(C(N)=O)CC1 (stereo not given) | -6.0 | 13 | -5 | 0.0 | 4.4 | -6 | 4 | ·
COc1cccc(N2CCN(c3ccc4nnc(CCC(=O)Nc5cc(C)ccn5)n4n3)CC2)c1 | -0.3 | 0.2 | 4 | -0.9 | -2.6 | 6 | -1 | ·
COC(=O)CSc1nnc(Cc2cc(=O)[nH]c(=O)[nH]2)n1-c1cccc(OC)c1 | · | -1.0 | -6 | -0.2 | 1.9 | -6 | -2 | 27%
COc1ccc(NC(=O)COc2nsnc2N2CCOCC2)cc1 | · | 2.7 | -7 | 0.2 | 3.2 | 12 | 0 | 4%
CCN1CCN(CCOc2cccc(Oc3ccccc3)c2)CC1 | 4.9 | 0.7 | ? | 1.6 | 2.0 | 11 | -3 | 6%
Cc1cccc(-n2nnc3cnn(C)c3c2=O)c1 | · | -0.6 | -13 | -0.1 | 3.5 | 3 | 0 | 26%
